MLL AF4-AF9 inh: MLL-AF4/AF9 protein interaction inhibition; AlphaScreen, biotin-AF4 peptide binding to FLAG-AF9; P42568; 350,000 tested, 0.47% active; inhibition, % at 10 µM; AID 651704;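 active = every replicate reaching a set inhibition limit, whatever the replicate mean, cut at about 25% in these data; inconclusive = mean inhibition reaches that limit but some replicates miss it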;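 also: 0% = plate neutral control median and 100% = total signal loss; the record names both 10 and 1 µM as test concentration; the first replicate is given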
Target sequence (P42568 whole entry, looked up): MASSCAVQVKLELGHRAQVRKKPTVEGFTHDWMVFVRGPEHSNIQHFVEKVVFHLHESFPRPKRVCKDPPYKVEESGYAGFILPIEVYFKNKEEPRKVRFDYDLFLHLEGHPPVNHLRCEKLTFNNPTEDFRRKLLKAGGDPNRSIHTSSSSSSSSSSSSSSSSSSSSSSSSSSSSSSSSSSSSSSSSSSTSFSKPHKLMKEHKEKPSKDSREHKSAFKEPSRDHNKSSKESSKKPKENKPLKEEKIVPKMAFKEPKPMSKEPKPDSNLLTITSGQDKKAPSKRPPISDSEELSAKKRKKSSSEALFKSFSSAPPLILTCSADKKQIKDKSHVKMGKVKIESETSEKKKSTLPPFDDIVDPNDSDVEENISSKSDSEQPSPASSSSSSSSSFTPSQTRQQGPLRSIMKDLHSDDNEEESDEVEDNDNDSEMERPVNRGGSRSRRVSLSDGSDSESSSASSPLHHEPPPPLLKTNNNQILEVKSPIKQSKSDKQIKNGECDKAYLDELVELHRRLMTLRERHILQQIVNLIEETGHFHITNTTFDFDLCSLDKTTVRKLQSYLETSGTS
Calb FLC: C. albicans growth modulation with fluconazole; C. albicans CaCi-2 (fluconazole-resistant clinical isolate) + fluconazole, Alamar Blue growth, 48 h; 300,000 tested, 0.57% active; AID 1979; growth inhibition, % (test concentration not listed);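 active = most replicates above 75%; inconclusive = exactly half above 75%; inactive = most below 75%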;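 also: all wells also contain fluconazole at 8 µg/ml as a sub-toxic cotreatment; 0% = median of DMSO wells and 100% = median of geldanamycin control wells; wells of about 8 µL received 7.5 nL stock; the first replicate is given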
RanGTP-Imp inh: disruptors of Ran-importin-beta complex formation – biochemical, FRET, CFP-Ran, YFP-importin-beta, homogeneous, primary screen | cell-free CFP-Ran/YFP-importin-beta FRET ratio | inhibition, % (test concentration not listed) | 300,000 tested, 1.1% active;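 active = most replicates above 15%; inconclusive = exactly half above 15%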;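 also: 0% = DMSO wells and 100% = Ran loaded with GDP instead of GTP; wells of about 40 µL received 100 nL stock; the first replicate is given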
T cruzi repl: T. cruzi replication inhibition; T. cruzi beta-gal in NIH3T3, luminescence, 90 h; inhibition, % (no concentration beside the values); 300,000 tested, 1.4% active; AID 1885;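 active = mean inhibition across valid replicates above about 55%, limit read from the data; inconclusive = mean below that limit but half or more replicates reach it; inactive = mean below it, under half of replicates reach it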;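 also: signal also drops with host cell toxicity which is not excluded here; 0% = plate median of DMSO wells and 100% = zero luminescence signal; higher percent means less beta-gal luminescence so fewer parasites; stock transfer was 50 nL into about 50 µL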
Beta apoptosis: beta cell apoptosis inhibition; AID 435005; protection from apoptosis, % (no concentration beside the values); 300,000 tested, 0.8% active; INS-1E cytokine-induced death, ATP luminescence, 48 h; percent of positive-control rescue, neutral wells zero;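 active = all replicates at 75% or more, or half of them and the mean; inconclusive = half reach 75% but not the mean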;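 also: 0% = cytokine-treated negative control wells and 100% = positive control rescue; higher means more ATP so stronger rescue from cytokine killing; wells of about 40 µL received 100 nL stock; the first replicate is given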
Ecoli rRNA inh: inhibits bacterial ribosomal RNA function over humanized ribosomes. E. coli WT GFP vs humanized-ribosome RFP mutants, fluorescence, 24 h; active compounds read low; DMSO median 0, no signal -100. GFP signal change (wild-type ribosome), % (test concentration not listed). 350,000 tested, 1.6% active. AID 720706;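 active = significant combined selectivity score with lowered wild-type GFP, culture density cut under 30%, mutant RFP and density less affected; inactive = any of these conditions unmet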; also: one replicate is shown; some compounds called inactive have numbers as strong as hits
A1 inh: inhibitors of the anti-apoptotic protein A1, read as caspase activation. 330,000 tested, 0.066% active. MEF A1-2A-BIM cells, Caspase-Glo 3/7 luminescence, 3 h; percent of clofoctol response, vehicle zero. caspase activation, % (concentration not given with the values);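 active = over half of replicate activation scores above 10%, or exactly half above 10 with the replicate mean above 10; inconclusive = replicate mean below 10 yet half the replicates above 10; inactive = over half of replicates below 10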;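 also: wells of about 30 µL received 50 nL stock; many hits fall short of the cut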
Vif TR-FRET: inhibitors of Vif binding to APOBEC3G peptide, primary screen, biochemical, TR-FRET, GST-Vif 1-94, biotin-A3G peptide, dose response retest (AID 1117319) | TR-FRET GST-Vif / biotin-A3G peptide binding; higher % means a stronger effect; test concentration not given here; strong numbers were not always called active | inhibition, %, or IC50 in µM where a hit was titrated | 260,000 tested, 0.57% active;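 active = above the screen mean plus three standard deviations and confirmed in dose response; inconclusive = results disagree or hit not tested in dose response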;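 also: Vif residues 1-94 fused to GST binding biotinylated APOBEC3G peptide 110-148; 0% = full assay without inhibitor and 100% = GST in place of GST-Vif; retest series ran down from 100 µM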
Ecoli rRNA inh OD600: also measured in Ecoli rRNA inh; calls as there; OD600 change, %; measured here: OD600 growth;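 optical density of the mix in the first replicate; 0 = DMSO median and -100 = no signal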
Ecoli rRNA inh RFP: recorded beside Ecoli rRNA inh, whose call it bears; RFP signal change, %; measured here: RFP humanized mutant strains;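 first replicate; 0 = DMSO median and -100 = no signal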
* = called active by the depositor; ? = inconclusive; · = no result given; & = joins results of further samples. An excerpt. The share of hits here may be higher or lower than overall.

SMILES	MLL AF4-AF9 inh	Calb FLC	RanGTP-Imp inh	T cruzi repl	Beta apoptosis	Ecoli rRNA inh	Ecoli rRNA inh OD600	Ecoli rRNA inh RFP	A1 inh	Vif TR-FRET
CCOc1ccccc1NC1=C(Cl)C(=O)N(c2ccccc2)C1=O	·	-5.4	1.1	-27.0	-5.9	·	·	·	0.2	1.3%
O=C(NCCCN1CCOCC1)c1ccc2c(c1)N(Cc1cccc(F)c1)C(=O)c1ccccc1S2	-7.2	-5.7	2.7	-0.8	2.1	-7.9	-17.4	12.0	1.8	·
COc1ccc(CNC(=O)CCC(=O)Nc2nnc(CC(C)C)s2)cc1	-36.2	2.7	2.9	-5.7	0.5	13.8	25.5	5.5	-1.2	3.3%
COc1ccccc1-c1nnc(SCC(=O)NCc2ccco2)n1N	-2.9	-6.2	?	-9.4	-5.0	11.0	-2.1	-1.3	0.0	?
COc1ccc(C(=O)NCC(c2ccc3c(c2)OCO3)N2CCN(c3ccc(OC)cc3)CC2)cc1 (stereo not given)	-5.0	11.8	2.5	16.1	3.2	8.4	13.5	-1.8	0.3	2.0%
COC(=O)C1=NN(C(=O)c2cccc(Br)c2)C(O)(c2ccc(Cl)cc2)C1 (stereo not given)	2.1	-17.1	-6.0	14.5	-2.9	-52.5	-77.1	-19.2	-0.3	-4.5%
NS(=O)(=O)c1ccc2nc(NC(=O)C3CCCO3)sc2c1 (stereo not given)	1.5	-13.8	1.1	-3.3	-2.5	8.2	3.0	-6.1	1.2	15.8%
O=C(c1ccc(CS(=O)(=O)Cc2ccccc2)cc1)N1CCCCC1	-2.2	-0.6	3.4	-11.3	2.5	18.3	10.0	18.7	-0.7	·
CC(c1nnc(SCC(=O)N(C)C2CCS(=O)(=O)C2)n1-c1ccccc1)N(C)C (stereo not given)	33.6*	·	·	·	0.9	2.5	2.5	-2.0	-0.8	·
Cc1ccc(C)c(S(=O)(=O)N2CCCOC2CNC(=O)C(=O)NCc2ccccn2)c1 (stereo not given)	-5.9	-1.3	-0.8	23.5	-18.7	-5.4	-4.5	-1.6	-0.4	·
COc1ccccc1CCC(=O)OCC(=O)Nc1cccc(S(=O)(=O)N2CCOCC2)c1	-15.8	8.1	2.4	-11.3	-3.2	-11.1	-18.1	1.3	0.4	3.1%
COc1ccc(S(=O)(=O)N2CCN(c3nc(C)cc(C)n3)CC2)cc1	-0.1	-2.4	-0.6	-4.8	-7.3	-6.0	-6.4	4.8	0.1	3.1%
Cc1cc(N)n2nc(-c3ccccc3)c(-c3ccccc3)c2n1	·	2.4	3.5	10.5	-4.5	·	·	·	-0.1	·
CSc1cccc(NS(=O)(=O)c2cccs2)c1	·	3.7	-1.9	-16.6	0.8	·	·	·	0.4	-3.0%
C=CCc1c(C)nc2c(C(=O)O)cnn2c1C	2.1	44.1	?	-6.3	0.8	17.3	10.0	-4.0	1.3	37.5%
CCCn1c(N)c(N(CCOC)C(=O)CSc2cc(C)c3cccc(C)c3n2)c(=O)[nH]c1=O	-1.6	·	·	·	-3.8	19.1	14.3	0.2	0.9	·
CCC(=O)NC(C)c1nc2ccccc2n1C (stereo not given)	·	-9.2	?	-5.1	-5.9	·	·	·	-0.5	0.0%
Cc1ccc(OCc2nc(C#N)c(NCc3ccc4c(c3)OCO4)o2)cc1	·	-14.4	3.5	3.6	-9.5	·	·	·	0.5	3.9%
Cc1cc(NCCNC2=CC(=O)CCC2)nc2ccccc12	·	-4.9	-2.7	1.8	-0.8	·	·	·	0.4	16.9%
CC(C)NS(=O)(=O)c1ccc(OCC(N)=O)c(Cl)c1	·	8.1	0.8	1.1	2.3	·	·	·	0.0	-5.4%
Cc1ccc(C)c(OCc2cc(C(=O)NC(C)c3cnn(C)c3)no2)c1 (stereo not given)	1.4	-15.9	-0.2	-0.4	1.5	-10.2	-18.9	-0.5	2.4	·
CCCCOc1ccc(C(=O)NCCCC(=O)N2CCCCC2)cc1	·	-3.0	3.8	6.0	1.1	·	·	·	-2.1	2.7%
CS(=O)(=O)N(CC(=O)NCCSCc1ccccc1)c1ccc2c(c1)OCO2	-0.3	-0.1	0.4	8.0	3.0	-5.6	-16.9	2.0	-0.1	·
COc1ccc(C)cc1NCc1ccc([N+](=O)[O-])cc1	22.8	-12.2	-1.5	-9.8	-7.5	-2.1	-3.2	1.7	0.0	·
COc1ccccc1NC(=S)NCC1CCCO1 (stereo not given)	-4.4	5.4	0.1	-15.0	-5.0	9.3	13.7	1.3	0.0	6.4%
New compounds follow:
SMILES	MLL AF4-AF9 inh	Calb FLC	RanGTP-Imp inh	T cruzi repl	Beta apoptosis	Ecoli rRNA inh	Ecoli rRNA inh OD600	Ecoli rRNA inh RFP	A1 inh	Vif TR-FRET
O=C(CCCn1c(=O)c2ccccc2n(CC(=O)N2CCN(c3ccccc3)CC2)c1=O)NCc1ccco1	1.0	11.0	0.9	6.4	0.2	6.7	15.4	2.4	0.0	3.1%
COc1ccc(C(CC(=O)Nc2ncccc2C)N2Cc3ccccc3C2=O)cc1OC (stereo not given)	-0.7	?	3.3	-1.8	2.5	3.7	10.1	1.2	0.6	-19.1%
O=C(CC1CC2CCC1C2)OCC(=O)c1c[nH]c2ccccc12 (stereo not given)	·	-13.0	?	4.3	-5.1	·	·	·	0.9	-1.5%
CC(C)CC(=O)NC(=S)Nc1ccccc1C(=O)Nc1ccccc1	·	-6.6	1.3	-0.8	-1.4	·	·	·	0.3	-3.4%
Nn1c(SCc2ccccc2)nc2c(cnn2-c2ccccc2)c1=O	-3.0	1.2	-3.0	5.9	2.1	17.9	22.7	4.0	-5.4	2.5%
CSCCC(C(=O)N1C[C@]2(C)C[C@H]1CC(C)(C)C2)N1C(=O)c2ccccc2C1=O (stereo not given in full)	·	5.1	-2.6	-9.9	1.3	·	·	·	-0.2	0.6%
CCOC(=O)CSc1nnc([C@H](CC(C)C)NC(=O)OC(C)(C)C)o1	·	-3.7	-1.4	-4.7	·	·	·	·	·	6.5%&17.2%
CC(C)C[C@H](NC(=O)C1CC(=O)N(c2ccc3c(c2)OCCO3)C1)C(=O)N1CCCCC1 (stereo not given in full)	1.6	-5.8	?	-4.8	-8.8	3.4	7.9	-3.3	0.6	·
COc1cccc(C(=O)NC(=S)Nc2ccc(Cl)cc2C(=O)O)c1	4.2	3.9	1.0	-10.4	-3.4	-2.7	4.2	-0.9	-2.5	13.5%
CCCCN(C)C(=O)C(Cc1ccccc1)NS(=O)(=O)c1ccc2c(c1)CCC(=O)N2 (stereo not given)	-7.0	1.0	-0.3	-8.0	·	-2.3	-3.8	-1.0	0.0	4.9%
CCc1c(O)nc(SCC(=O)Nc2ccccc2OC)n(-c2ccccc2C)c1=O	-1.7	-7.9	-3.6	-1.9	-7.5	-14.4	-7.9	-3.1	1.3	·
O=C(NC1CCCN(C2Cc3ccccc3C2)C1)c1ccc(F)cc1Cl (stereo not given)	1.5	10.7	2.1	47.6	-0.2	11.5	14.2	5.3	0.6	-10.3%
COC(=O)c1cccc(NC(=O)/C(=C\c2ccccc2)NC(=O)c2ccccc2Cl)c1	·	11.5	1.8	9.2	8.7	·	·	·	-0.4	1.1%
CC1CCN(C(=O)CSc2ccc(-c3ccccc3)nn2)CC1	0.5	-17.9	1.7	9.0	-4.7	-4.3	-9.3	1.3	0.3	0.9%
CC1(C)Oc2ccc(C(=O)NN)cc2NC1=O	-2.4	-1.6	?	-16.1	-2.4	1.7	3.7	-0.7	0.8	-7.9%
COc1ccc(NC(=O)c2ccc(-c3ccc(C)c4ccccc34)o2)cc1	-21.8	2.1	4.6	-19.7	-8.3	-6.0	-1.2	-1.9	-0.7	5.7%
CC(C)c1ccc(C2(C)NC(=O)N(CC(=O)NCC3COc4ccccc4O3)C2=O)cc1 (stereo not given)	2.5	·	·	·	-6.5	-19.6	-66.9	2.5	0.3	-4.0%
C[C@H](CO)N1C[C@H](C)[C@@H](CN(C)C(=O)Nc2ccc(C(F)(F)F)cc2)Oc2ccc(NS(=O)(=O)c3cn(C)cn3)cc2C1=O	-1.5&2.0	·	·	·	-1.1	-7.9&4.8	-10.9&3.0	-3.2&-2.4	0.0	·
FC(F)(F)c1cc(NC2CCCCC2)ccn1	-2.3	-4.0	-1.7	-7.1	-5.7	0.3	5.2	-3.0	-1.0	5.7%
CN(C)c1cc[n+](/C(C(=S)Nc2ccc(SC(F)F)cc2)=C(/[O-])c2ccccc2)cc1	4.3	?	8.1	-0.2	-4.5	-18.9*	-5.6*	1.9*	-0.2	-21.3%
CC(=O)Nc1ccc(S(=O)(=O)Oc2ccc(C=O)cc2)cc1	·	-3.8	-0.6	-0.2	5.6	·	·	·	-0.5	·
COC(=O)c1cccc(NC(=O)CSc2nnc(-c3ccco3)o2)c1	0.4	-1.7	0.9	-9.8	6.7	-5.4	-3.1	5.9	-0.1	-4.9%
COc1cccc(CN2CCNC(=O)C2CC(=O)NC2Cc3ccccc3C2)c1 (stereo not given)	-3.2	12.8	-3.1	13.7	-8.5	12.3	22.6	-0.1	0.2	4.3%
COc1cc(C(=O)NCc2cn3ccsc3n2)cc(OC)c1OC	·	-1.6	2.3	-8.7	·	·	·	·	0.3	-1.3%
CCCc1ccc2oc(C(=O)N3CCC(N4CCCC(O)C4)CC3)c(C)c2c1 (stereo not given)	0.1	2.4	1.1	33.9	-1.0	-7.1	-6.9	0.2	1.2	-0.8%
CCC(C)NC(=O)C1CCN(S(=O)(=O)N2CCC3(CC2)OCCO3)CC1 (stereo not given)	-0.1	16.1	1.4	3.2	-2.6	10.8	11.8	1.9	-0.4	·
COC(=O)CSc1nnc2n1C(C)(C)Cc1ccccc1-2	·	-4.7	-2.1	5.9	·	·	·	·	0.0	-5.2%
O=C(O)c1c(C(=O)N2N=C3/C(=C/c4ccccc4)CCCC3C2c2ccccc2)cccc1[N+](=O)[O-] (stereo not given)	-7.8	-2.8	0.8	-12.8	-0.9	-12.3	-8.5	-1.1	0.4	-0.7%
CC(=O)NC(Cc1ccc(C)cc1)C(=O)NC1CCN(C(=O)c2ccc([N+](=O)[O-])cc2)CC1 (stereo not given)	-1.7	?	2.5	-14.1	-7.7	9.7	15.5	1.5	0.5	·
CCN(CC)CCn1c(NCc2ccc(C)o2)nc2ccccc21	·	-12.1	3.2	31.0	·	·	·	·	0.0	6.9%

Bioassay records deposited in PubChem BioAssay by several laboratories.
